ARFGAP1 inh = inhibitors of rat ARFGAP1 GAP activity, primary screen, biochemical, fluorescence polarization, GDP tracer; ADP-ribosylation factor GTPase-activating protein 1 (Rattus norvegicus), Q62848; Arfgap1-stimulated ARF1 GTP hydrolysis, GDP FP detection; inhibition, % at 16.5 µM; hit rate 0.26% among 360,000; AID 651572, 2012;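 active = inhibition above a per-plate limit, mean inhibition of low control wells plus 3 SD, cut at about 25% in these data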;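 also: 0% = DMSO wells with enzyme and 100% = wells lacking Arfgap1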
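Material – truncated rat Arfgap1 GAP domain · Buffer or medium – HEPES-based buffer, pH 7.5 · Reagent – human ARF1(Δ1-17)-GTP substrate · Dosing – 16.5 µM single point, 1.26% DMSO · Schedule – GTP hydrolysis reaction 2 h at 25 °C · Technique – GDP detection by fluorescence polarization · Benchmarks – No-Arfgap1 wells (100%) versus DMSO full-reaction wells (0%) · Repeats – single replicate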
HGIII-sPLA2 inh = human group III sPLA2 inhibitors, primary screen, biochemical, QFRET, BODIPY PC-A2 liposome substrate. inhibition, % at 12.2 µM. hit rate 0.56% among 370,000. QFRET BODIPY PC-A2 liposome hydrolysis, fluorescence;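 active = inhibition above mean plus 3 SD of compounds lying within the high and low control bounds, cut at about 19% in these data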;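 also: 0% = median of test compound wells and 100% = no enzyme DMSO wells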
PLC-gamma1 inh = PLC-gamma1 enzyme inhibitors, primary screen, biochemical, fluorescence, purified enzyme | hit rate 0.84% among 370,000 | inhibition, % at 12.2 µM | fluorogenic substrate | 1-phosphatidylinositol 4,5-bisphosphate phosphodiesterase gamma-1 (Homo sapiens), P19174; in the data active = inhibition above about 9.5%
PLCb3 inh = human PLC-beta3 inhibitors, primary screen, biochemical, fluorescence; 1-phosphatidylinositol 4,5-bisphosphate phosphodiesterase beta-3 (Homo sapiens), Q01970; Purified PLC-beta3, fluorogenic substrate; inhibition, % at 12.2 µM; hit rate 0.18% among 370,000; in the data active = inhibition above about 11%;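 also: 0% = median of compound wells on plate and 100% = full blocker control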
DDE Tn7 FP inh = inhibitors of Tn7 peptide binding to fibrin DD(E), primary screen, biochemical, fluorescence polarization, human fibrin, Tn7 probe | FP displacement of FITC-Tn7 peptide from fibrin DD(E); 0% = median of compound wells per plate | inhibition, % at 8.3 µM | hit rate 0.13% among 370,000 | AID 720508, 2013;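 active = inhibition above the mean of compounds falling within the control limits plus 3 SD of them, cut at about 14% in these data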;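 also: 0% = plate median of compound wells and 100% = 10 µM Aha-Tn7 peptide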
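Also added: labelled Tn7 tracer, 0.1 µM; Assay system: human fibrin DD(E) protein; Amount: 2 µM fibrin DD(E); Schedule: 10 min compound pre-incubation, 3 h probe incubation at room temperature; Repeats: one replicate per compound; Read-out basis: percent inhibition; Measured by: fluorescence polarization of the labelled Tn7 tracer.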
NR1D1 modulator = modulators of Rev-erb alpha DNA binding, primary screen, biochemical, FITC-DNA, fluorescence polarization, uHTS. Nuclear receptor subfamily 1 group D member 1 (Homo sapiens), P20393. Rev-erbα–FITC-DNA binding, 90 min. activity, % at 10 µM. hit rate 0.79% among 370,000. AID 1259318, 2017;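 active = activity above about 14%, limit read from the data; passing the limit was not always enough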;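 also: 0% = DMSO wells with 35 nM protein and 100% = DMSO wells with 750 nM protein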
Target sequence (P20393 whole entry, looked up): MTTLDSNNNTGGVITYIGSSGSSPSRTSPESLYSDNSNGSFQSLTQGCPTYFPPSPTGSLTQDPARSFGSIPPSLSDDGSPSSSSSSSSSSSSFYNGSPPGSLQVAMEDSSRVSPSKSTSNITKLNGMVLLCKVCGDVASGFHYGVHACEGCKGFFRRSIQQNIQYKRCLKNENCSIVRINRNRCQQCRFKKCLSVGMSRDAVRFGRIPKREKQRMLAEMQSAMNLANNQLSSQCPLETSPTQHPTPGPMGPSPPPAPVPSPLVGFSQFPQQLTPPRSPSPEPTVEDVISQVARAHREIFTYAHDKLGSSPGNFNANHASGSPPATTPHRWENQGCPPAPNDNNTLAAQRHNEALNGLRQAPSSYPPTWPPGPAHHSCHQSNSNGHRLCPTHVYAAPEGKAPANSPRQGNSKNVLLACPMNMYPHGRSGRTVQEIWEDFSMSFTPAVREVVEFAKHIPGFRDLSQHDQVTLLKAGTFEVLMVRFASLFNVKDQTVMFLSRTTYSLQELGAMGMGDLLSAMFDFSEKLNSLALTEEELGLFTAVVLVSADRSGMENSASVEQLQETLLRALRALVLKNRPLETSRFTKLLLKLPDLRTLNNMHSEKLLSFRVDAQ
ASAP1 GAP inh = inhibitors of human ASAP1 ArfGAP activity, primary screen, biochemical, fluorescence polarization | inhibition, % at 16.5 µM | hit rate 0.19% among 360,000 | ASAP1-stimulated ARF1 GTP hydrolysis, GDP FP detection; in the data active = inhibition above about 25%;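 also: 0% = vehicle with enzyme and substrate and 100% = no enzyme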
Target sequence (Q9ULH1 325-724 limits assumed): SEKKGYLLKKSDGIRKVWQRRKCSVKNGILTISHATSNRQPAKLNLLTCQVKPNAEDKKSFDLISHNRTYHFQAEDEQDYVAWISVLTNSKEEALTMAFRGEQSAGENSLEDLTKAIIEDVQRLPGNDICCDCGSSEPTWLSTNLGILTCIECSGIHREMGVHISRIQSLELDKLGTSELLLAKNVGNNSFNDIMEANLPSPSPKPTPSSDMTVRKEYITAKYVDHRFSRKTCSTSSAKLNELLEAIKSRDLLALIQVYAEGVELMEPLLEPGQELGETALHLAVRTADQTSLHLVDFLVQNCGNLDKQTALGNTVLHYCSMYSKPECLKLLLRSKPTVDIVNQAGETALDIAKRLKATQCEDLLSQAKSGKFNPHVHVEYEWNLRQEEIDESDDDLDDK
Tn6 DDE FP = inhibitors of Tn6 peptide binding to fibrin DD(E), primary screen, biochemical, fluorescence polarization, human fibrin, Tn6 probe; Fibrin DD(E) TRITC-Tn6 fluorescence polarization displacement; hit rate 0.21% among 370,000; inhibition, % at 8.3 µM; Fibrinogen beta chain (Homo sapiens), P02675;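 active = inhibition above a per-campaign cutoff: mean of compounds within control limits plus 3 SD, cut at about 15% in these data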;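 also: 0% = median of all compound wells on the plate and 100% = blocking peptide control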
UHRF1 MBD2 ctr = UHRF1 methylated DNA binding inhibitors, primary screen, counter-screen for MBD2 inhibitor project, biochemical, TR-FRET, human UHRF1, single concentration | UHRF1 binding to methylated oligo | hit rate 0.75% among 370,000 | AID 687016, 2013 | inhibition, % at 4.4 µM; in the data active = inhibition above about 21%;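 also: UHRF1 SRA domain binding a hemimethylated CpG hairpin DNA probe; 0% = median of test compound wells and 100% = reference inhibitor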
Numbers without * were called inactive; i = inactive; · = no result given; & = joins results of further samples.

SMILES	ARFGAP1 inh	HGIII-sPLA2 inh	PLC-gamma1 inh	PLCb3 inh	DDE Tn7 FP inh	NR1D1 modulator	ASAP1 GAP inh	Tn6 DDE FP	UHRF1 MBD2 ctr
O=C(NCC1CCN(Cc2cccc(Cl)c2)CC1)Nc1ccccc1Cl	-7	-12	4	-4	9	8	3	-3	-1
C=CCn1c(C(CC)CC(C)(C)O)n[nH]c1=S (centres undefined)	0	-1	0	-1	5	-3	0	-2	-1
Cc1nc2ccc(Cl)cc2n1C	2	4	4	4	-7	-5	-5	-9	1
Clc1ccc(-c2nnc(COc3ncnc4ccccc34)o2)cc1	8	-1	-1	-5	-2	-3	13	-5	1
Oc1ccc2ccccc2c1CNc1cnc2ccccc2c1	-4	-20	-131	-157	1	-4	5	10	0
CCCC(C)NC(=O)c1cccc(Oc2ccccc2)c1 (centres undefined)	4	-6	0	-4	-8	-2	-1	3	-1
C/C(CC1CC2=C(CC1(C)C)C(C)(C)CCC2)=N\NC(N)=S (centres undefined)	-2	4	-4	-3	4	11	-3	3	-4
Cc1ccc(NC(=O)c2ccc(CN3CCN(C)CC3)cc2)cc1Nc1nccc(-c2cccnc2)n1	11	-3	-2	-3	-4	-2	5	-4	2
COc1ccc(OCC(=O)Nc2cc(OC)cc(OC)c2)cc1	3	-8	2	1	-2	-3	-2	-1	-13
CCOC(=O)c1c(C)n(C)c2ccc(OC)c(NC(=O)CN3CCN(C(=O)c4ccco4)CC3)c12	-1	7	0	0	-3	5	-7	-2	3
NS(=O)(=O)c1ccc(NC(=O)c2ccccc2C(=O)N2CCCCC2)cc1	9	-2	2	1	-1	-1	3	-12	0
O=C(O)CSCC(=O)NCc1ccc(Cl)cc1Cl	2	5	0	0	-7	-5	5	-7	-1
CCOC(=O)CN1C(=O)N[C@@H](c2cccc(C(F)(F)F)c2)C(C(=O)OC)=C1C	-2	0	1	3	-2	-3	8	0	-2
CN(NS(=O)(=O)c1ccc(Cl)cc1)c1ncc(C(F)(F)F)cc1Cl	-6	-12	1	-2	0	0	-7	-8	-2
CC1CCCC(C)N1C(=S)NCc1ccco1 (centres undefined)	5	11	3	-2	-8	3	-1	-4	0
Cc1cccc(CS(=O)(=O)Cc2ccc(C(=O)NC3CCCCCC3)o2)c1	20	-8	4	-7	-2	-4	0	-2	1
Cc1ccc(-c2noc(-c3ccoc3C)n2)cc1	-4	2	1	2	-3	2	-11	3	1
COc1cc(C(=O)NC2CCN(C)CC2)ccc1Nc1ncc2c(n1)N(C1CCCCC1)CCC(=O)N2C	12	1	-348	i	-7	-2	15	-4	37*
CCc1ccc(-n2cccc2/C=C2/C(=N)N3C(=NC2=O)SN=C3S(C)(=O)=O)cc1	-13	-46	-31	-38	5	-11	5	-25	-1
COc1ccc(OC(=O)CCc2c[nH]c3ccccc23)cc1	3	-94	3	-1	-14	4	14	-8	2
Cc1cccc(NS(=O)(=O)c2ccc(C(=O)N3CCCCCC3)cc2)c1C	-4	-8	-3	-1	-1	-7	-2	0	0
COc1ccc(C(=O)Sc2nncc3ccccc23)cc1	-2	9	9	3	-2	-1	-4	-1	0
O=C(Nc1nc2cc3c(cc2s1)OCCO3)c1ccncc1	1	5	-9	-18	1	0	5	-3	1
COc1ccccc1Nc1ccc(NS(=O)(=O)c2ccc(C(C)=O)cc2)cc1	-3	-21	5	-4	6	3	14	0	-3
COC(=O)c1ccc(C23CC4(C2)[C@H](CN(Cc2cccnc2)[C@@H]4c2ccccc2)C3c2ccc(Cl)nc2)cc1 (some centres undefined)	-2	-2	2	0	0	1	-6	3	-1
CCC(C)NC(=O)C1CCN(S(=O)(=O)c2cccnc2)CC1 (centres undefined)	5	-1	0	1	-8	-1	-2	2	3
CCC(=O)NC(=S)Nc1ccc(NC(=O)c2ccco2)c(Cl)c1	15	3	2	1	-1	1	1	5	-2
O=C(O)c1cccc(-n2cccc2/C=C2/SC(=O)N(CC(=O)N3CCCC3)C2=O)c1	-12	-5	1	-11	-1	-5	11	8	6
OC(CCN1CCCCC1)(c1ccccc1)C1CC2C=CC1C2 (centres undefined)	·	4	-2	-2	2	1&2	·	-1	2
COc1ccc(NC(=O)CCCNC(=O)Cn2cnc3sc(C)c(C)c3c2=O)cc1Cl	18	14	4	-4	2	8	-1	3	6
CCc1ccc(OCCCOc2ccc(C=O)cc2)cc1	5	6	-2	-6	7	2	-5	3	1
Cn1c(=O)c2c(ncn2CCOc2ccc(Br)cc2)n(C)c1=O	-2	-2	-2	-3	-4	0	6	-2	2
C=CCC(C#N)(c1ccc(OC)c(OC)c1)c1cnccn1 (centres undefined)	5	-5	-1	0	0	1	23	2	0
CN1C(=O)C(N=Nc2ccccc2C(=O)O)N(C)C1=S (centres undefined)	-2	1	-5	-5	5	18	-4	9	-6
COc1ccc(/C=N/NC(=O)CO/N=C(\C)c2cccs2)cc1	7	-4	-11	-8	-2	3	-2	6	3
CCN(CCNC(=O)C1CCCN(c2ncnc3c2nc2n3CCCCC2)C1)Cc1ccccc1 (centres undefined)	-1	-1	-4	-7	7	1	-4	2	1
Cc1ccccc1NC(=O)c1ccc2c(c1)C(=O)N(CC(C)C)C2=O	8	2	0	-7	1	0	-4	-3	2
CN=C(Nc1cc(C)nn1-c1ccccc1)c1ccccc1F	-5	1	3	1	2	-7	3	-9	4
N#Cc1cnn(-c2ccccc2)c1NC(=O)c1ccccc1F	1	-2	3	-3	0	-7	0	7	2
CCC(C)(C)NC(=O)C(c1ccc(C)o1)N(Cc1cccs1)C(=O)Cn1nnc2ccccc21 (centres undefined)	-2	-10	2	4	0	-3	3	-1	0

2 compounds drawn at random from the list so far, as already listed:
SMILES	ARFGAP1 inh	HGIII-sPLA2 inh	PLC-gamma1 inh	PLCb3 inh	DDE Tn7 FP inh	NR1D1 modulator	ASAP1 GAP inh	Tn6 DDE FP	UHRF1 MBD2 ctr
Clc1ccc(-c2nnc(COc3ncnc4ccccc34)o2)cc1	8	-1	-1	-5	-2	-3	13	-5	1
CCCC(C)NC(=O)c1cccc(Oc2ccccc2)c1 (centres undefined)	4	-6	0	-4	-8	-2	-1	3	-1

Going on with the list.
SMILES	ARFGAP1 inh	HGIII-sPLA2 inh	PLC-gamma1 inh	PLCb3 inh	DDE Tn7 FP inh	NR1D1 modulator	ASAP1 GAP inh	Tn6 DDE FP	UHRF1 MBD2 ctr
CCOC(=O)Nc1ccc(Cc2ccncc2)cc1	-7	3	1	-5	4	0	-1	-3	-2
O=C(CN1C(=O)C2C3C=CC(C3)C2C1=O)Nc1nncs1 (centres undefined)	-11	-3	5	2	-1	0	-1	1	0
CC[C@H](C)C(=O)O[C@H]1C[C@@H](C)C=C2C=C[C@H](C)[C@H](CC[C@@H]3C[C@@H](O)CC(=O)O3)[C@H]21	-4&8	-4&-3	-5&0	-3&-2	-10&1	2&-4&5	14&-1	-3&-12	-4&3
O=C(c1ccc(F)cc1)C1CCN(C(=O)c2ccccc2F)CC1	-1	2	-1	-4	-4	4	1	-3	2
Cc1cccc(-c2cccc(NC(=O)C3CCCN(Cc4cccnc4)C3)c2)c1 (centres undefined)	3	-32	4	-6	-7	1	-3	-4	0
Nc1nc2ccc(OC(F)(F)F)cc2s1	-1	10	1	-4	6	-4&-9	-6	3	3
Cc1nc(NCC2CCCO2)[nH]c(=O)c1CCC(C)C (centres undefined)	-3	12	8	6	2	-3	7	-2	3
Cc1ccc(CNc2ccc(O)cc2)cc1	6	-6	-35	-47	-4	2	-4	13	-2
O=[n+]1cc(-c2ccccc2)n([O-])c2c1CCCCC2	3	1	6	3	-10	-3	0	0	0
O=[N+]([O-])c1ccc(-c2nc(-c3cccs3)c(-c3cccs3)[nH]2)cc1	1	9	-82	-102	2	24*	-10	-27	-9
COc1ccccc1NS(=O)(=O)c1cc(C(=O)N2CCCCCCC2)ccc1C	2	-7	0	2	6	-2	12	1	-3
CCN(CC)CCCN1C(=O)C(O)=C(C(=O)c2cc3cccc(OC)c3o2)C1c1ccncc1 (centres undefined)	2	3	-4	-6	-1	-1	13	5	-3
CCOc1ccc(NC(=O)c2cc(C3CC3)nc3c2cnn3C(C)C)cc1OC	3	6	-5	-3	-1	-4	15	-3	-2
O=C1/C(=C\c2ccc(C(F)(F)F)cc2)CSc2sccc21	0	3	2	-6	-4	1	0	-10	6
CC1CCCC(C)N1CCCNC(=O)c1nn(C)c2c1CSc1ccccc1-2 (centres undefined)	-8	8	2	-9	-2	3	-2	-4	2
C=CCn1c(=S)[nH]c2scc(-c3ccco3)c2c1=O	-12	3	-17	-33	-2	-32	4	-8	42*
O=C(N/N=C/c1ccc(OC(=O)c2ccccc2Br)cc1)c1ccccn1	12	1	2	-6	4	2	2	-5	-1
CCOc1ccccc1NC(=S)N(Cc1cc2ccc(C)cc2[nH]c1=O)CC1CCCN1CC (centres undefined)	2	-2	1	0	-1	-7	-20	-6	-3
OCCOCCN1CCN(C2=Nc3ccccc3Sc3ccccc32)CC1	7&-5	1&-7	0&5	0&2	7&-1	6&-8&0	-2&-10	4&-1	2&-4
CC(C)CC(=O)NCc1ccc2[nH]c3c(c2c1)CCCC3	-13	-5	-190	-243	-10	-4	-4	-5	-3
CN1CCN(NC(=O)/C=C/c2cccc([N+](=O)[O-])c2)CC1	4	17	12*	2	-3	3	-8	-9	1
N#Cc1nc(Cc2cccc3ccccc23)oc1N1CCN(c2ccccc2)CC1	4	1	-1	5	-9	4	1	-3	-1
O=C(N/N=C/c1ccc2c(c1)OCO2)c1ccc(Br)o1	12	19*	-54	-78	5	3	5	-5	4
C/C(=N/OCO/N=C(/C)c1ccc(F)cc1)c1ccc(F)cc1	4	-6	2	3	-2	5	5	2	1

Some entries already given, showing only ASAP1 GAP inh, PLCb3 inh and DDE Tn7 FP inh:
Molecule,ASAP1 GAP inh,PLCb3 inh,DDE Tn7 FP inh
OC(CCN1CCCCC1)(c1ccccc1)C1CC2C=CC1C2 (centres undefined),·,-2,2
COc1ccc(NC(=O)CCCNC(=O)Cn2cnc3sc(C)c(C)c3c2=O)cc1Cl,-1,-4,2
CCc1ccc(OCCCOc2ccc(C=O)cc2)cc1,-5,-6,7
Cn1c(=O)c2c(ncn2CCOc2ccc(Br)cc2)n(C)c1=O,6,-3,-4
C=CCC(C#N)(c1ccc(OC)c(OC)c1)c1cnccn1 (centres undefined),23,0,0
CN1C(=O)C(N=Nc2ccccc2C(=O)O)N(C)C1=S (centres undefined),-4,-5,5
COc1ccc(/C=N/NC(=O)CO/N=C(\C)c2cccs2)cc1,-2,-8,-2

Screening data deposited in PubChem by several laboratories.

A portion of the library; the hit share may differ from the screen's.
